# Bioassay records: PubChem BioAssay, ICCB-Longwood Screening Facility, Harvard Medical School
# GIV-Gai inh: GIV-Galpha-i interaction inhibition | P08753 | Galpha-i3/FITC-GIV peptide fluorescence polarization, 90 min; active compounds read low; scaled: aluminum fluoride 0%, vehicle 100% | percent of control (FP), % (no concentration beside the values) | actives 0.42% (n = 210,000) | AID 1224905;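 active = replicate mean at 85% of control or lower, very high polarization wells dropped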;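 also: wells of about 15 µL received 100 nL stock; the first replicate is given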
# Target sequence (P08753 whole entry, looked up): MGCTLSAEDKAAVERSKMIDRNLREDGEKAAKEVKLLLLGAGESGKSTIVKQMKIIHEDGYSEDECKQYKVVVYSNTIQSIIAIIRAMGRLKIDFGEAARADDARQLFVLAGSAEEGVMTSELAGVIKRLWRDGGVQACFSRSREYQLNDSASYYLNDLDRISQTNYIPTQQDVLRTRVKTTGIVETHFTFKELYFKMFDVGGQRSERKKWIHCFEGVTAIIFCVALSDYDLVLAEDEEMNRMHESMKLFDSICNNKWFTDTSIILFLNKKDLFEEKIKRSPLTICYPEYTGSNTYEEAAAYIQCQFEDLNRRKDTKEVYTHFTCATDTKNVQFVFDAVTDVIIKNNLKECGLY
# Sa growth 42C: blocks Staphylococcus aureus growth; S. aureus RN4220 growth, OD600, 20 h, 42 °C; active compounds read low; relative growth, % (no concentration beside the values); actives 0.53% (n = 170,000);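 active = growth at 42 °C up to 50% and 20 or more points under that at 30 °C, or under 10% at both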;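 also: 300 nL library stock went into each well; scaled to the means of positive and negative controls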
# HCMV NEC inh: cytomegalovirus nuclear egress complex inhibition; actives 0.15% (n = 190,000); inhibition, % (test concentration not listed); AID 1918969; HTRF UL50-UL53 interaction, normalized percent inhibition;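 active = both replicates at 50% or more, plus weaker picks with an unusually low signal ratio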;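 also: stock transfer was 100 nL into about 20 µL; 0% = negative control wells and 100% = wells with untagged competitor protein; inactives centre near -12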
# Sa growth 42C second temp: recorded beside Sa growth 42C, whose call it bears; relative growth, %; measured here: growth at 30 °C;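 optical density after 20 h as mean of two plates; 100% = untreated growth and lower means inhibition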
# An asterisk follows results filed as active; . = no result given; & = joins results of further samples.
# Values run as follows: GIV-Gai inh	Sa growth 42C second temp	HCMV NEC inh	Sa growth 42C
- CC(C)c1cnc2c(c1SCC(=O)NCc1ccccc1Cl)c(=O)n(C)c(=O)n2C
  102.8	92.2	.	93.7
- Cc1cc(NC(=O)N(C)CCc2c(C)nn(C)c2C)ccc1Br
  101.5&102.8	84.4	-2.3	91.7
- COc1ccc(NC(=O)NC2COc3ccccc3C2)c(OC)c1 (stereo unspecified)
  103.9&97.3	88.7	.	80.7
- COC(=O)c1ccc(NC(=O)CCNCc2ccco2)cc1
  .	85.4	-24.6	104.8
- CCC(C)C(=O)N1c2ccccc2C(N(C(=O)c2cccc(Cl)c2)c2ccccc2)CC1C (stereo unspecified)
  106.9	.	2.1	.
- CCOC(=O)c1cccc(NC(=O)Cc2noc3ccccc23)c1
  106.9	89.3	-15.9	94.8
- Cc1nn(-c2ccccc2)c(C)c1/C=C/C(=O)OCn1nnc2ccccc2c1=O
  .	25.9	-5.5	65.2
- CS(=O)(=O)Cc1nc2ccccc2oc1=O
  102.5	14.1	-20.6	34.5
- Cn1c(=O)c2cc(C(=O)NCc3cccs3)sc2c2ccccc21
  100.2	89.0	.	88.8
- COc1ccc(NC(=O)c2cc3nc(-c4ccc(C)c(C)c4)cc(C(F)(F)F)n3n2)cc1
  102.8	90.8	-4.5	110.8
- O=C1CCCN2N=C(SCC(=O)Nc3nc4ccccc4s3)SC2=N1
  101.0	71.4	-12.4	96.8
- O=C(Nc1ccc2c(c1)OCO2)c1c(-c2ccc(F)cc2)nc2n1CCS2(=O)=O
  100.4	.	-20.3	.
- O=C(O)Cn1cnc(-c2ccc(F)cc2)c1
  98.9	87.7	-10.7	104.9
- Cc1ccc(-c2cn3c(n2)sc2cc(C(=O)NCc4cccs4)ccc23)cc1
  112.7	82.7	.	94.7
- O=C(c1ccc2c(c1)OCCO2)N1CCOCC1
  102.3	.	-11.6	.
- CCCCCOc1ccc(O)cc1
  .	90.0	-15.1	102.4
- O=C1C(N2CCCCC2)=C(n2nnc3ccccc32)C(=O)c2ccccc21
  98.1	44.1	-36.0	57.3
- COc1ccccc1CNc1ccc(-c2nc(-c3cccc(C)c3)no2)cc1[N+](=O)[O-]
  100.3	91.9	4.6	108.8
- CCc1nc(N2CCCCC2)c(C#N)c2c1CCCC2
  97.8	94.0	.	109.7
- O=C(Cc1ccccc1F)Nc1ccc(-n2cnnn2)cc1
  .	83.0	-10.4	88.4
- O=C(CSc1ccc2ccccc2n1)Nc1nsc(-c2ccc(Cl)cc2)n1
  100.2	96.5	-57.0	85.1
- CCOC(=O)c1sc(=S)n(CC)c1N
  103.7	74.6	-46.2	87.8
- O=C(NCC(c1ccc(F)cc1)N1CCOCC1)Nc1cccc(C(F)(F)F)c1 (stereo unspecified)
  .	71.3	0.5	146.4
- O=C(Cn1c(=O)oc2cc(S(=O)(=O)NC3CCCC3)ccc21)Nc1nccs1
  107.8	84.9	-1.2	98.2
- NC(=O)c1cc(N)ccc1N1CCCCC1
  .	93.8	-2.6	114.5
- O=C(c1ccccc1N=Nc1c(O)[nH]c(=O)[nH]c1=O)N1CCOCC1
  99.6	111.4	-92.0	75.4
- N#Cc1ccc(COC(=O)C2CCCN2C2=NS(=O)(=O)c3ccccc32)cc1 (stereo unspecified)
  .	95.6	-16.9	76.6
- CCOc1ccc(NC(=O)C(CC)n2nc(-c3ccc(C)c(C)c3)ccc2=O)cc1 (stereo unspecified)
  102.8	81.5	-41.4	95.1
- CC(C)(Oc1ccc(Cl)cc1)C(=O)OCC(=O)N1CCCC1
  .	93.0	-26.1	104.4
- Cc1ccc(NS(=O)(=O)c2cn(C)cn2)c(C)c1
  103.7	.	-17.2	.
- C=CCNC(=O)CN1C(=O)C2CCCCN2c2ccc(C(=O)N(C)C)cc21 (stereo unspecified)
  100.8	.	-21.0	.
- CCCN1CCN(C(=O)c2cn(Cc3ccccc3)nc2-c2ccccc2OC)CC1
  .	89.6	-8.6	90.9
- CCOC(=O)/C=C1\SCC(=O)N1CCCCN1C(=O)c2ccccc2C1=O
  .	94.3	-38.3	107.8
- O=C(O)C12CC3CC(C1)CC(n1cnc(Cl)n1)(C3)C2
  .	95.9	6.4	80.8
- CC(=O)Nc1ccc(NC(=O)C2CC2(C)C)cc1 (stereo unspecified)
  96.9	78.1	34.0	86.0
- NC(=O)CSc1nccn2nc(-c3ccccc3)cc12
  143.2	.	-32.6	.
- Cc1c(C(=O)N(C)C2CCCCC2)cnn1-c1ccccc1
  107.9	88.6	-7.4	125.1
- Cc1[nH]c(C(=O)N2CCC(CC(=O)NCc3ccco3)CC2)c(C)c1C
  101.1	.	2.4	.
- CC(=O)Oc1cccc(-c2nc3cc(C)ccc3o2)c1
  103.5	79.9	-4.2	102.3
- CCOC(=O)C1=C(C)N=c2s/c(=C/c3cc(Br)ccc3OC(C)=O)c(=O)n2C1c1ccccc1 (stereo unspecified)
  109.6	.	-9.5	.
- Cc1cccc(C(=O)N2CCc3cc(CNS(=O)(=O)c4ccc(F)c(Cl)c4)ccc32)c1
  101.7&105.0	84.5	.	101.6
- NC(=O)c1ccc(NC(=O)COc2coc(CN3CCc4ccccc43)cc2=O)cc1
  106.0	90.2	-16.2	92.4
- Cc1oc(-c2cccc(Br)c2)nc1CN1CCC(C(=O)NCC2COc3ccccc3O2)CC1 (stereo unspecified)
  108.7	84.9	1.7	126.1
- O=C(O)CSC1CCS(=O)(=O)C1 (stereo unspecified)
  98.5	87.1	-10.0	99.3
- O=C(c1ccc(Oc2cc(Cl)cc(Cl)c2)o1)N1CCN(Cc2cccnc2)CC1
  112.2	99.5	-1.3	108.8
- CN(C(=O)c1cc2c(s1)-c1ccc(Cl)cc1SC2)c1cccc(C(F)(F)F)c1
  103.0	91.8	-5.7	108.7
- Clc1nc(CN2CCOCC2)nc2scc(-c3ccccc3)c12
  .	95.7	-9.0	98.0
- COc1cc(OC)c(C(=O)NCCCN2CCOCC2)cc1OC
  104.5	95.3	3.3	100.9
- Cc1ccc(C)n1-c1nnc(N2CCCC(C(=O)NCc3ccc(Cl)cc3)C2)s1 (stereo unspecified)
  100.3	94.0	3.7	104.5
- COCC(=O)Nc1ccc(Cl)cc1
  99.6	75.3	-3.2	108.3
- NNC(=O)CNC(=O)c1cccnc1Oc1ccccc1
  106.3	83.6	-37.4	93.4
- Cc1ccc(-c2nc(CS(=O)CC(=O)O)c(C)o2)cc1 (stereo unspecified)
  103.1	90.9	.	97.6
- COC(=O)c1cc2ccsc2n1CC(=O)Nc1cccc(OC)c1
  108.4	.	-21.4	.
- O=C(NC1CC1)C1CCN(c2nc3cccnc3s2)CC1
  105.3	106.2	8.2	96.4
- CCC(Sc1nnc2c3ccccc3n(CC)c2n1)C(=O)Nc1nnc(C(C)C)s1 (stereo unspecified)
  103.6	90.2	-40.1	90.1
- COc1ccc(-n2c(SCC(=O)c3ccc(O)cc3O)nc3ccccc32)cc1
  .	90.7	-17.9	73.2
- COc1ccc(C(=O)Nc2ccc3oc(-c4ccc5ccccc5c4)nc3c2)cc1Br
  105.7	86.3	-47.1	103.1
- CCCCc1ccc2nc3sc(C(=O)O)cc3cc2c1
  .	44.7	-57.0	32.8
- O=C(c1ccccc1CCc1ccccc1)N1CCOCC1
  109.4	86.5	-2.2	111.3
- COc1ccc(C2CC(C(F)(F)F)n3ncc(C(=O)N4CCN(C(c5ccccc5)c5ccccc5)CC4)c3N2)cc1 (stereo unspecified)
  93.3	.	11.7	.

# (more compounds)
# Values run as follows: GIV-Gai inh	Sa growth 42C second temp	HCMV NEC inh	Sa growth 42C
- CC(C)NC(=O)C1CCN(c2nnc(N3CCCC3=O)s2)CC1
  102.7	.	-20.8	.
- Cc1ccc2onc(OC(=O)NC(C)(C)C)c2c1
  100.5	89.5	-21.6	100.7
- CCOc1cc(C(=O)NCc2nc(-c3cccc(C)c3)no2)cc(OCC)c1OCC
  108.6	90.2	-15.8	109.6
- COc1cccc(NC(=O)c2c(N)c(C(=O)c3ccc(C)cc3)n3ccccc23)c1
  100.7	.	-23.2	.
- O=c1cc(N2CCN(S(=O)(=O)c3ccc(F)c(F)c3)CC2)nc2sc(-c3ccccc3)nn12
  101.9	.	59.7*	.
- O=C(NCCSc1ccccc1)c1ccco1
  .	81.9	-6.3	99.1
- COc1ccc(-n2nc3cc(C)c(NC(=O)c4ccc(-c5ccc(Cl)cc5)o4)cc3n2)cc1
  104.9	91.1	-50.5	105.0
- Cc1cccc(OCC(=O)Nc2ccc3c(c2)nc(CCNC(=O)c2ccco2)n3C)c1
  107.9	97.7	12.0	97.7
- CC1=C2C(=O)CCCC2=Nc2ccccc2N1
  100.4	96.7	-1.0	85.1
- O=C(/C=C/c1nc2ccccc2s1)OCC(=O)N1CCCC1=O
  .	95.3	-16.1	82.2
- COc1cc(CO)c(Br)cc1O
  103.2	97.2	-6.4	96.7
- CCOC(=O)c1c(C)[nH]c(C)c1S(=O)(=O)NCC(=O)N1CCN(c2ccccc2)CC1
  102.1	82.8	-15.4	105.7
- C=C(C)Cn1c(SCC(=O)c2ccc(Br)cc2)nc2sc3c(c2c1=O)CCCC3
  105.2	92.8	7.1	89.8
- CN(C)c1nc(C23CC4CC(CC(C4)C2)C3)cs1
  .	65.7	-7.6	80.0
- CCOC(=O)c1cnc(NCc2ccccc2)s1
  102.7	79.8	-5.6	95.6
- COc1ccc(OC)c(NC(=O)Nc2cccc(-c3noc(C4CCC4)n3)c2)c1
  106.2	.	-15.2	.
- CC(=O)c1cccc(NC(=O)CSc2nc3c(c(=O)[nH]2)CCC3)c1
  104.8	86.4	-22.2	99.1
- COc1ccc2c(CC(=O)OCc3c(C)noc3C)coc2c1
  .	94.6	-22.8	103.1
- Cn1c(C(=O)NCCCN2CCN(c3ccccc3F)CC2)cc2c(=O)[nH]c3ccccc3c21
  101.2	89.6	-3.1	111.9
- CC1(C)NC(=O)N(CCOc2ccc(F)cc2)C1=O
  101.6	96.1	12.7	94.1
- CCOc1ccc(C(=O)NCc2noc(-c3cccc(Cl)c3)n2)cc1
  103.4	.	-14.6	.
- O=C(NCCS(=O)(=O)N1CCN(c2ccc(F)cc2)CC1)c1ccccc1Br
  105.4	91.6	.	85.0
- CC(C)(C)OC(=O)N1CCCN(S(=O)(=O)c2ccc(Cl)cc2)CC1
  101.3	72.9	.	106.8
- Cc1ccc(NC(=O)CCNS(=O)(=O)c2ccc3nc(-c4ccccc4)[nH]c3c2)cc1
  95.0	81.2	.	104.0
- CSc1ccc(-c2ccc(SC)cc2)cc1
  102.3	91.3	.	102.6
- CCS(=O)(=O)NCC(c1ccco1)N1CCN(c2ccccc2)CC1 (stereo unspecified)
  93.7	89.0	.	115.7
- CSc1cccc(NC(=O)CC(c2cccs2)N2Cc3ccccc3C2=O)c1 (stereo unspecified)
  104.9	106.6	.	108.6
- COc1ccc(CNC(=O)c2cc3c(=O)[nH]c4ccccc4c3s2)cc1
  100.9	89.3	3.7	110.9
- CC(C)NS(=O)(=O)c1ccc2c(c1)CCN2C(=O)NC1CCCCC1
  95.6	.	5.8	.
- COc1ccc(C(=O)Nc2ccc(-c3nc4ncccc4o3)cc2C)cc1Br
  98.1	88.3	-17.4	86.4
- CCOC(=O)C1=C(C)NC2=C(C(=O)CC(c3ccc(OC)c(OC)c3)C2)C1c1cccc(OC)c1OC (stereo unspecified)
  104.3	.	-37.7	.
- CCNC(=O)C1CCCN(C(=O)c2cc(-c3ccncc3)n[nH]2)C1 (stereo unspecified)
  104.5	.	-10.4	.
- CC(NC(=O)c1cccc(F)c1)C(c1cccs1)N1CCN(C)CC1 (stereo unspecified)
  108.8	97.6	-4.4	87.4
- Clc1ccc(/C=C2\CCCC3=C2Nc2ncnn2C3c2ccc(Cl)cc2)cc1 (stereo unspecified)
  105.1	.	-44.1	.
- Cc1cc2nnc(SCC(=O)c3cc(C)n(Cc4ccccc4)c3C)n2c2ccccc12
  99.4	73.0	.	122.6
- CC1CN(Cc2c(O)ccc3c(=O)c(Oc4ccccc4Br)c(C(F)(F)F)oc23)CC(C)O1 (stereo unspecified)
  96.7	.	-34.0	.
- CCOC(=O)c1cnc2c(ccc3ccccc32)c1Nc1cccc(OC)c1
  108.1	94.6	9.3	103.4

# Record cards, from the list above.
# Listed for `CCOC(=O)c1cnc2c(ccc3ccccc32)c1Nc1cccc(OC)c1` → GIV-Gai inh: 108.1; Sa growth 42C second temp: 94.6; HCMV NEC inh: 9.3; Sa growth 42C: 103.4
# Listed for `CCOC(=O)C1=C(C)NC2=C(C(=O)CC(c3ccc(OC)c(OC)c3)C2)C1c1cccc(OC)c1OC` (stereo unspecified) → GIV-Gai inh: 104.3; Sa growth 42C second temp: .; HCMV NEC inh: -37.7; Sa growth 42C: .

# Reformatted with each value named: entries from further up.
CCNC(=O)C1CCCN(C(=O)c2cc(-c3ccncc3)n[nH]2)C1 (stereo unspecified)
- GIV-Gai inh = 104.5
- Sa growth 42C second temp = .
- HCMV NEC inh = -10.4
- Sa growth 42C = .

CC(NC(=O)c1cccc(F)c1)C(c1cccs1)N1CCN(C)CC1 (stereo unspecified)
- GIV-Gai inh = 108.8
- Sa growth 42C second temp = 97.6
- HCMV NEC inh = -4.4
- Sa growth 42C = 87.4

Clc1ccc(/C=C2\CCCC3=C2Nc2ncnn2C3c2ccc(Cl)cc2)cc1 (stereo unspecified)
- GIV-Gai inh = 105.1
- Sa growth 42C second temp = .
- HCMV NEC inh = -44.1
- Sa growth 42C = .

Cc1cc2nnc(SCC(=O)c3cc(C)n(Cc4ccccc4)c3C)n2c2ccccc12
- GIV-Gai inh = 99.4
- Sa growth 42C second temp = 73.0
- HCMV NEC inh = .
- Sa growth 42C = 122.6
